Screens (PubChem BioAssay)
Vif A3G: inhibitors of Vif binding to APOBEC3G peptide, primary screen, biochemical, TR-FRET, GST-Vif 1-94, biotin-A3G peptide, dose response retest (AID 1117319). TR-FRET GST-Vif / biotin-A3G peptide binding; higher % means a stronger effect; test concentration not given here; strong numbers were not always called active. one-dose inhibition, %; IC50 in µM for titrated hits. actives 0.57% (n = 260,000);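 active = above the screen mean plus three standard deviations and confirmed in dose response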;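 note: Vif residues 1-94 fused to GST binding biotinylated APOBEC3G peptide 110-148; 0% = full assay without inhibitor and 100% = GST in place of GST-Vif; retest series ran down from 100 µM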
Ecoli rRNA inh: selective bacterial rRNA inhibition in E. coli | AID 720706 | E. coli WT GFP vs humanized-ribosome RFP mutants, fluorescence, 24 h; hits give low values; DMSO median 0, no signal -100 | GFP signal change (wild-type ribosome), % (test concentration not listed) | actives 1.6% (n = 350,000);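 active = significant combined selectivity score with lowered wild-type GFP, culture density cut under 30%, mutant RFP and density less affected; inactive = any of these conditions unmet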; note: one replicate is shown; some compounds called inactive have numbers as strong as hits
A1 inh: inhibitors of the anti-apoptotic protein A1, read as caspase activation. MEF A1-2A-BIM cells, Caspase-Glo 3/7 luminescence, 3 h; percent of clofoctol response, vehicle zero. caspase activation, % (concentration not given with the values). actives 0.066% (n = 330,000). AID 2462;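 active = over half of replicate activation scores above 10%, or exactly half above 10 with the replicate mean above 10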;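 note: wells of about 30 µL received 50 nL stock; many hits fall short of the cut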
MLL AF4-AF9 inh: blocks AF4 peptide binding to human AF9; AID 651704; AlphaScreen, biotin-AF4 peptide binding to FLAG-AF9; P42568; actives 0.47% (n = 350,000); inhibition, % at 10 µM;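 active = every replicate reaching a set inhibition limit, whatever the replicate mean, cut at about 25% in these data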;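 note: 0% = plate neutral control median and 100% = total signal loss; the record names both 10 and 1 µM as test concentration; the first replicate is given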
Target sequence (P42568 whole entry, looked up): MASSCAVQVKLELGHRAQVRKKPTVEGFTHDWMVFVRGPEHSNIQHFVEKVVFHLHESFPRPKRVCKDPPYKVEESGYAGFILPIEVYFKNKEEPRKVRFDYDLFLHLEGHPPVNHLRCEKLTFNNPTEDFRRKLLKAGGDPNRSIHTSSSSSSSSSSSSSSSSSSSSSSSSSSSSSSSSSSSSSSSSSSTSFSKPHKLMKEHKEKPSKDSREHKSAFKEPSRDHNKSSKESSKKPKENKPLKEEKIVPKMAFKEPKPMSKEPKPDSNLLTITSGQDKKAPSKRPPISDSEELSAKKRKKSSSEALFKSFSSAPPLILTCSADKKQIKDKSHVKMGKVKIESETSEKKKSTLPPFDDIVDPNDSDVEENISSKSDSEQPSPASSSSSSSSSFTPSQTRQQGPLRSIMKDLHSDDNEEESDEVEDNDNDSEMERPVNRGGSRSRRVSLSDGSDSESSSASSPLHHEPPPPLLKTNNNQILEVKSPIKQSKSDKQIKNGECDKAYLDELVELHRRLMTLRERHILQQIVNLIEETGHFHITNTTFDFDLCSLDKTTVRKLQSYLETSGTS
Beta cell apopt: blocks beta cell apoptosis | INS-1E cytokine-induced death, ATP luminescence, 48 h; percent of positive-control rescue, neutral wells zero | actives 0.8% (n = 300,000) | protection from apoptosis, % (concentration not given with the values) | AID 435005;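 active = all replicates at 75% or more, or half of them and the mean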;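 note: 0% = cytokine-treated negative control wells and 100% = positive control rescue; higher means more ATP so stronger rescue from cytokine killing; wells of about 40 µL received 100 nL stock; the first replicate is given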
Ecoli rRNA inh OD600: recorded beside Ecoli rRNA inh, whose call it bears; OD600 change, %; measured here: OD600 growth;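 optical density of the mix in the first replicate; 0 = DMSO median and -100 = no signal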
Ecoli rRNA inh RFP: further read-out of Ecoli rRNA inh, marked with its call; RFP signal change, %; measured here: RFP humanized mutant strains;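 first replicate; 0 = DMSO median and -100 = no signal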
Numbers without * were called inactive; / = not tested or not shown; & = joins results of further samples. This is a subset. The share of hits here may be higher or lower than overall.

Order of results: Vif A3G | Ecoli rRNA inh | Ecoli rRNA inh OD600 | Ecoli rRNA inh RFP | A1 inh | MLL AF4-AF9 inh | Beta cell apopt
- CC=Cc1ccc2n(c1=O)C[C@@H]1[C@@H](CO)[C@H](C(=O)OC)[C@H]2N1CC1CCCCC1 (mixture of isomers)
→ / | -3 | -7 | 0.2 | / | 2.0 | /
- CCCCCN1C(=O)c2ccccc2[C@@]2(C(=O)OCC)Cc3cc(Cl)ccc3[C@@H]12
→ / | 5 | 6 | 19 | / | -8.4 | /
- COC(=O)[C@@H]1[C@@H](CO)[C@@H]2Cn3c(ccc(-c4ccccc4)c3=O)[C@H]1N2CC1CCOCC1
→ / | 0 | 1 | 1.7 | / | -0.1 | /
- CCCNC(=O)N1[C@@H]2Cn3c(ccc(-c4ccccc4OC)c3=O)[C@H]1[C@@H](C(=O)OC)[C@@H]2CO
→ / | 2 | 12 | -1.3 | / | -0.5 | /
- COc1ccc(-c2ccc([C@H]3[C@@H](CO)N4CCCCN(C(=O)Cc5ccccc5)C[C@H]34)cc2)cc1
→ / | -33 | -64 | 17 | / | 2.7 | /
- COC(=O)[C@@H]1[C@@H](CO)[C@@H]2Cn3c(ccc(-c4cccc(OC)c4)c3=O)[C@H]1N2C(=O)c1ccccc1F
→ / | -4 | 6 | -1.3 | / | 2.2 | /
- CCCN1[C@@H]2Cn3c(ccc(-c4cccc(C(=O)N(C)C)c4)c3=O)[C@H]1[C@@H](C(=O)OC)[C@@H]2CO
→ / | 1 | 5 | -3.0 | / | 0.9 | /
- Cc1ccc(OC(=O)N(C)C[C@H]2OCc3cnnn3CCCC(=O)N([C@@H](C)CO)C[C@@H]2C)cc1
→ / | 13&0 | 10&1 | 5.5&-2.1 | / | 2.7&-0.1 | /
- N#Cc1cccc(-c2ccc([C@@H]3[C@@H](CO)N4CCCCN(C(=O)Cc5ccncc5)C[C@H]34)cc2)c1
→ / | -1 | 9 | -2.7 | / | -2.3 | /
- O=C(Cc1ccccn1)N1CCCCN2[C@H](CO)[C@@H](c3ccc(-c4ccccc4F)cc3)[C@@H]2C1
→ / | 4 | 10 | 20 | / | -10 | /
- c1cc2c(cc1[C@H]1OC[C@H]3[C@@H]1CO[C@H]3c1ccc3c(c1)OCO3)OCO2
→ / | -49 | -74 | -18 | / | -2.2 | /
- NC(=O)c1c(NC(=O)c2ccc(S(=O)(=O)N(CCCl)CCCl)cc2)sc2c1CCCCC2
→ -8% | / | / | / | 0.2 | / | 1
- Cc1ccc(CN2CCN(C)CC2)c(C)c1
→ 5% | / | / | / | -0.2 | / | 5
- CCOC(=O)c1c(C)n(Cc2ccccc2)c2ccc(OCC(O)Cn3nc(C)cc3C)cc12 (stereo unspecified)
→ 7% | / | / | / | -1.1 | / | -35
- COP(=O)(OC)C(O)C(Cl)(Cl)Cl (stereo unspecified)
→ 8% | / | / | / | 2.1 | / | -4
- O=C1NC(=O)C2(Cc3c(nc4ccccn4c3=O)N3CCCCCC32)C(=O)N1Cc1ccccc1 (stereo unspecified)
→ -6% | / | / | / | -0.6 | / | 2
- Cc1oc(C(=O)Nc2ccc(O)cc2)cc1COc1ccccc1
→ 14% | / | / | / | 0.2 | / | 4
- COCOC1CCC2C3CCC4=CC(=O)CCC4=C3C=CC12C (stereo unspecified)
→ 23µM* | / | / | / | / | 4.3 | /
- CCCOc1ccccc1OCC(=O)N1CCN(CC(=O)N2CCOCC2)CC1
→ 2% | / | / | / | / | -28 | /
- CC12CCC(O)CC1CCC1C2CCC2(C)C(C3=CC(=O)OC3)C(O)CC12O (stereo unspecified)
→ -5% | / | / | / | / | -2.3 | /
- CCC1CN1P(=S)(N1CC1CC)N1CC1CC (stereo unspecified)
→ -4% | / | / | / | / | -0.7 | /
- O=C(Cc1cccs1)N1Cc2ccccc2-n2nncc2C1
→ 21% | / | / | / | / | -5.1 | /
- CC(=O)OC1CC(OC2C(O)CC(OC3C(O)CC(OC4CCC5(C)C(CCC6C5CCC5(C)C(C7=CC(=O)OC7)CCC65O)C4)OC3C)OC2C)OC(C)C1OC1OC(CO)C(O)C(O)C1O (stereo unspecified)
→ 3% | / | / | / | / | -2.5 | /
- C[C@]12CCC3C(CC[C@@H]4C[C@@H](O)CC[C@]34C)C1CC[C@@H]2O (stereo partly specified)
→ -6% | / | / | / | / | 1.6 | /
- CC1OC(OC2C(O)CC(OC3C(O)CC(OC4CCC5(C)C(CCC6C5CCC5(C)C(C7=CC(=O)OC7)C(O)CC65O)C4)OC3C)OC2C)CC(O)C1O (stereo unspecified)
→ 5% | / | / | / | / | -1.7 | /
- O=C(N1CCCCCC1)N1CC1
→ 9% | / | / | / | / | -2.4 | /
- CN1CCC2(CC1)c1ccccc1-c1ccccc12
→ -1% | / | / | / | / | 4.8 | /
- CCOC(=O)CC(SP1(=S)OCC2(CC=CCC2)CO1)C(=O)OCC (stereo unspecified)
→ -6% | / | / | / | / | -6.4 | /
- CC1=CC2OC3CC4OC(=O)C=CC=CC(=O)OCCC(C)C(O)C(=O)OCC2(CC1)C4(C)C31CO1 (stereo unspecified)
→ -6% | / | / | / | / | -0.9 | /
- C[C@]12CCC(=O)C=C1CC[C@@H]1[C@@H]2CC[C@@]2(C)[C@H]1CC[C@]2(C)O
→ -1% | -18 | -18 | 0.3 | / | / | /

Fetched by structure from the list above, two records:
Order of results: Vif A3G | Ecoli rRNA inh | Ecoli rRNA inh OD600 | Ecoli rRNA inh RFP | A1 inh | MLL AF4-AF9 inh | Beta cell apopt
- CCC1CN1P(=S)(N1CC1CC)N1CC1CC (stereo unspecified)
→ -4% | / | / | / | / | -0.7 | /
- CCCNC(=O)N1[C@@H]2Cn3c(ccc(-c4ccccc4OC)c3=O)[C@H]1[C@@H](C(=O)OC)[C@@H]2CO
→ / | 2 | 12 | -1.3 | / | -0.5 | /

The list continues:
Order of results: Vif A3G | Ecoli rRNA inh | Ecoli rRNA inh OD600 | Ecoli rRNA inh RFP | A1 inh | MLL AF4-AF9 inh | Beta cell apopt
- O=C1CC23c4ccccc4N4C(=O)CC5OCC=C6CN1C2CC6C5C43 (stereo unspecified)
→ 56% | 10 | 14 | 2.2 | / | -15 | /
- OCC1CN1C1CCCCC1 (stereo unspecified)
→ -12% | 15 | 17 | 2.9 | / | 4.7 | /
- CC(=NNC(=S)N1CC2CCC(CC2)C1)c1nccs1
→ 4% | 8 | 7 | 0.2 | / | 11 | /
- O=[N+]([O-])c1ccc(OP(=O)(O)Oc2ccc([N+](=O)[O-])cc2)cc1
→ 1% | 16 | 23 | 3.3 | / | -0.9 | /
- CN1C(=O)NC(=O)C2(CCCC2)C1=O
→ -4% | 17 | 13 | 3.9 | / | 4.6 | /
- COC(=O)C1=C(c2ccccc2OCc2ccccc2)C[C@@H]2CC[C@H]1N2C
→ 6% | 4 | -5 | -4.5 | / | 1.2 | /
- CCOP(=S)(OCC)SCSP(=S)(OCC)OCC
→ 2% | 5 | 16 | 1.0 | / | -8.3 | /
- O=C1NC(=S)SC1=Cc1ccc(N(CCCl)CCCl)cc1
→ -1% | 4 | -74 | 4.3 | / | 0.3 | /
- CC(=O)O/C(=C1\CC2C3CC=C4CC(OC(C)=O)CCC4(C)C3CCC2(C)C1=O)C(F)(F)F (stereo unspecified)
→ 4% | -50 | -80 | -19 | / | 6.1 | /
- CC=C(CC)C1(CCC)C(=O)NC(=S)NC1=O
→ -11% | -6 | -2 | -0.3 | / | -0.8 | /
- Cc1cc(C(=O)OCC(=O)Nc2ccccc2F)c(C)n1C1CC1
→ 7% | -11 | -18 | 1.3 | / | 6.4 | /
- CC1CN1P(=S)(c1ccccc1)N1CC1C (stereo unspecified)
→ -7% | 25 | 14 | 2.2 | / | 4.4 | /
- CCC1(O)CCC2C3CCC4=CC(=O)CCC4C3CCC21CC (stereo unspecified)
→ -6% | -34 | -61 | -13 | / | -11 | /
- COc1ccc(CN2Cc3cnnn3-c3ccccc3C2C#N)cc1 (stereo unspecified)
→ 0% | -60 | -79 | -20 | / | 0.1 | /
- NC1=NC(=O)N2CC12 (stereo unspecified)
→ -7% | 5 | 13 | 0.0 | / | -1.4 | /
- O=C1NC(=O)C(C2CCCCCC2)C(=O)N1
→ 12% | 14 | 21 | 2.0 | / | -5.8 | /
- Cc1ccc(OC(=O)N(C)C[C@@H]2OCc3cnnn3CCCC(=O)N([C@H](C)CO)C[C@@H]2C)cc1
→ 9% | 5&2 | 3&1 | 3.0&-2.6 | / | -0.4&-0.1&3.1 | /
- CN1C(=O)N(C)C(=O)C(NS(=O)(=O)c2ccc(N)cc2)(c2ccccc2)C1=O
→ 1% | 7 | 15 | 5.8 | / | -6.3 | /
- S=P(N1CCOCC1)(N1CC1)N1CC1
→ -10% | 5 | 11 | -4.7 | / | -2.3 | /
- CCC(C)(O)C(=O)OC1C(=O)OC2CC3C(C)=CC(=O)C(O)C3(C)C3C4(O)OCC23C1C(C)C4O (stereo unspecified)
→ 2% | 15 | 17 | 0.2 | / | 1.2 | /
- c1ccc(C(c2ccccc2)c2ccncc2)cc1
→ -5% | 9 | 13 | -0.8 | / | -1.2 | /
- CC12C=CC(=O)C=C1CCC1C2C(=O)CC2(C)C(=O)CCC12 (stereo unspecified)
→ -18% | -2 | -5 | 0.4 | / | -3.3 | /
- O=C(c1cccs1)N1CCC(C(=O)O)(c2ccccc2)CC1
→ -3% | 3 | 5 | -3.1 | / | -3.3 | /
- COc1ccc(C(CC(C)=O)c2c(O)c3ccccc3oc2=O)cc1OC (stereo unspecified)
→ -4% | -3 | -4 | -4.9 | / | -0.7 | /
- O=C1NC(=O)C(CCOc2ccccc2)(CCc2ccccc2)C(=O)N1
→ -7% | -6 | -9 | 3.6 | / | 4.8 | /
- Fc1ccccc1CN1Cc2ccccc2-n2nncc2C1
→ -1% | 3 | 8 | 3.9 | / | 1.8 | /
- O=C1NC(=O)C2C1C1(Cl)C(Cl)=C(Cl)C2(Cl)C1(Cl)Cl (stereo unspecified)
→ 2% | -28 | -47 | -6.0 | / | 2.8 | /
- CC(CC(C#N)(c1ccccc1)c1ccccc1)N1CCOCC1 (stereo unspecified)
→ -7% | 1 | -39 | -5.7 | / | 1.2 | /
- O=C(O)C(O)(c1ccc(Cl)cc1)C1(O)CCCC1 (stereo unspecified)
→ 9% | 12 | 10 | -2.2 | / | -0.3 | /
- CCC1C(c2cc(OC)c(OC)c(OC)c2)c2cc3c(cc2OC1N1CCCC1)OCO3 (stereo unspecified)
→ 1% | -1 | -18 | -1.4 | / | -0.4 | /
- CC1CN(c2ccccn2)C(C)CN1C(=O)C(O)(c1ccccc1)c1ccccc1 (stereo unspecified)
→ 2% | -10 | -29 | -7.2 | / | 1.8 | /
- O=P(N1CC1)(N1CC1)N1CCc2ccccc21
→ 0% | 10 | 8 | 1.7 | / | 6.3 | /
- C[C@@H]1CN([C@H](C)CO)C(=O)CCCn2nncc2CO[C@H]1CN(C)C(=O)Oc1ccc2ccccc2c1
→ 7% | -3&-2 | 1&-6 | 0.4&-2.4 | / | -2.3&2.9 | /
- O=C1NC2C(O)C(O)C(O)C(O)C2c2cc3c(c(O)c21)OCO3 (stereo unspecified)
→ -3% | 6 | 7 | -0.8 | / | -2.4 | /
- Cn1c(=O)oc(=O)c2ccccc21
→ 0% | 8 | 16 | 3.4 | / | -3.2 | /
- COc1cccc(C)c1NC1=NCCO1
→ -4% | 6 | 10 | 7.6 | / | -0.6 | /
- CCOC(=O)CNC(=O)N1Cc2ccccc2-n2nncc2C1
→ -6% | 9 | 10 | -0.7 | / | -3.3 | /
- O=C(NP(=O)(N1CC1)N1CC1)c1cc(I)ccc1I
→ -2% | 13 | 6 | 0.2 | / | -4.6 | /
- CC(=O)OC1CCC2(C)C3CCC4(C)C(OC(C)=O)CCC4C3C(C)C2(O)C1 (stereo unspecified)
→ -18% | -28 | -60 | -2.2 | / | -1.2 | /
- CC1CC2(C)C(=CC1=O)CCC1C3CCC(C)(O)C3(C)CC3OC312 (stereo unspecified)
→ -3% | -2 | -6 | 1.6 | / | -3.7 | /
